Screening data deposited in PubChem by Broad Institute.
MITF inh = inhibitors of MITF; TRPM1 promoter luciferase, luminescence, 24 h; inhibition, % (test concentration not listed); 37,000 compounds, 0.28% hits;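 active = most replicates at 85% or more, or half of them and the mean; inconclusive = half reach 85% but not the mean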;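 note: human melanocyte line stably carrying TRPM1 promoter luciferase reporter; 0% = vehicle wells and 100% = a positive control; the first replicate is given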
Hedgehog inh = Sonic Hedgehog pathway inhibition | inhibition, % (concentration not given with the values) | Shh-LIGHT2 Gli-luciferase reporter, 30 h | 22,000 compounds, 2.1% hits | AID 2313;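 active = replicate mean of 65% or more; inconclusive = mean lower but half the replicates past it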;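 note: pathway switched on by Shh-conditioned medium diluted 1 in 25 in low serum; 100 nL library stock added to about 40 µL; 0% = median of neutral wells and 100% = positive control level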
YB-1 expr inh = YB-1 expression inhibition; AID 434959; 30,000 compounds, 0.37% hits; delta delta Cp (YB-1 minus CDIP) (concentration not given with the values); U2OS, qRT-PCR YB-1 vs CDIP delta delta Cp, 16 h; hits give high values; zero = DMSO, each unit about twofold;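 active = delta delta Cp rounded down to an integer at or above 3, about 3 SD of DMSO wells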;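 note: higher means less YB-1 transcript or more CDIP transcript relative to DMSO; stock transfer was 100 nL into about 100 µL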
PD-1 reversal = activators reversing PD-1 mediated T-cell inhibition; primary human CD4 T cells, PD-L1 beads, CellTiter-Glo 96 h; activation, % (concentration not given with the values); 29,000 tested, under 10 active;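 active = replicate mean of 50% or more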;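 note: 0% = median vehicle wells and 100% = positive control; 100 nL library stock added to about 50 µL; numbers are from one replicate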
Active calls of the source: *; ? = inconclusive; . = not tested or not shown.

SMILES	MITF inh	Hedgehog inh	YB-1 expr inh	PD-1 reversal
C[C@@H]1CN([C@@H](C)CO)C(=O)c2cccc(NC(=O)c3ccncc3)c2O[C@@H]1CN(C)C(=O)Nc1cccc2ccccc12	7	6	0.047	0.0
C=C(C(=O)O)[C@@H]1CC[C@H](C)[C@@H]2CC(=O)C(C)=C2C1	-6	8	-0.25	1.8
C[C@@H]1CN([C@@H](C)CO)C(=O)Cc2cc(NC(=O)CCC(F)(F)F)ccc2O[C@@H]1CN(C)Cc1ccc(-c2ccccc2)cc1	12	-10	0.058	.
COc1ccccc1CCNC(=O)c1c(-c2c(F)cccc2Cl)noc1C	7	.	.	-1.1
C[C@@H]1CN([C@@H](C)CO)C(=O)c2cc(NS(C)(=O)=O)ccc2O[C@H]1CN(C)C	-1	27	-0.14	1.5
C[C@@H]1CCCCO[C@H](CN(C)Cc2ccc(C(=O)O)cc2)[C@@H](C)CN([C@H](C)CO)C(=O)c2cc(NC(=O)CCC(F)(F)F)ccc2O1	1	-12	0.033	-0.4
CCN(CC)C(=S)Sc1ncnc2sc3c(c12)CCCC3	15	90*	-0.089	-3.3
NNC(=O)CNc1ccc2c(c1)OCO2	7	-7	-0.25	0.2
CC(C)NC(=O)Nc1ccc2c(c1)CC(=O)N([C@H](C)CO)C[C@@H](C)[C@H](CN(C)S(C)(=O)=O)O2	-4	-39	0.085	.
CNS(=O)(=O)Cc1ccc2[nH]cc(CCN(C)C)c2c1	10	4	0.31	.
Cc1noc(C)c1S(=O)(=O)N(C)C[C@H]1Oc2c(NS(=O)(=O)c3ccc(F)cc3)cccc2C(=O)N([C@@H](C)CO)C[C@H]1C	-3	38	-0.69	1.7
C[C@H](CO)N1C[C@H](C)[C@@H](CN(C)S(=O)(=O)c2ccccc2)Oc2c(NC(=O)CCCCCC(=O)Nc3ccccc3N)cccc2C1=O	1	.	-0.017	0.4
O=C(COc1ccccc1Cl)Nc1ccc2oc(-c3ccc(F)cc3Cl)nc2c1	-73	.	.	-3.1
COc1ccc(S(=O)(=O)N(C)C[C@H]2Oc3c(NC(=O)Nc4ccc(C(F)(F)F)cc4)cccc3C(=O)N([C@@H](C)CO)C[C@H]2C)cc1	39	-62	0.43	-5.7
Cc1noc(C)c1S(=O)(=O)Nc1cccc2c1O[C@H](CN(C)Cc1ccc(-c3ccccc3)cc1)[C@H](C)CN([C@H](C)CO)C2=O	-6	-5	-0.58	-0.5
C[C@H](CO)N1C[C@H](C)[C@H](CN(C)S(C)(=O)=O)Oc2ccc(NC(=O)CCN3CCOCC3)cc2CC1=O	0	.	0.63	0.0
COc1c(Cc2ccccc2O)c(O)c(Cc2ccccc2O)c(O)c1C(=O)CCc1ccccc1	91*	89*	0.34	-0.9
CCC1=Nc2ccc(Br)cc2C(c2ccccc2)N1CC(=O)NN (stereo unspecified)	-43	.	-0.31	0.2
C[C@@H]1CN([C@H](C)CO)C(=O)Cc2cc(NS(=O)(=O)c3cccs3)ccc2O[C@H]1CN(C)C(=O)Nc1ccc2c(c1)OCO2	-9	2	0.42	2.2
C[C@H]1CN([C@@H](C)CO)C(=O)Cc2cc(NC(=O)Nc3ccc4c(c3)OCO4)ccc2O[C@H]1CN(C)C(=O)Nc1cccc2ccccc12	-6	-2	-0.28	.
CCn1c(SCC(=O)Nc2ccc(C)cc2C)nnc1-c1cccs1	-8	.	.	-0.5
CC(C)NC(=O)Nc1ccc2c(c1)CC(=O)N([C@@H](C)CO)C[C@H](C)[C@H](CN(C)S(=O)(=O)c1cn(C)cn1)O2	1	.	0.06	0.6
COc1cc(NC(=O)CN(C)S(=O)(=O)c2ccc(Br)cc2)c(OC)cc1Cl	-5	.	.	0.0
Clc1cccc(Nc2nnc(-c3ccccc3)c3ccccc23)c1	66	94*	-0.33	-18
COc1ccc(N(CC(=O)Nc2ccc(I)cc2)S(C)(=O)=O)cc1OC	16	.	.	1.5
C[C@@H]1CN([C@H](C)CO)C(=O)c2cc(NC(=O)CCCN(C)C)ccc2O[C@H]1CN(C)S(=O)(=O)c1ccc(Cl)cc1	-11	-10	-0.39	-1.1
COc1ccc(NC(=O)Nc2cccc3c2O[C@H](CN(C)Cc2ccc(Cl)c(Cl)c2)[C@H](C)CN([C@H](C)CO)C3=O)cc1	-8	13	0.47	-2.1
Cc1noc(C)c1NC(=O)N(C)C[C@@H]1Oc2ccc(NC(=O)c3ccncc3)cc2C(=O)N([C@H](C)CO)C[C@H]1C	-4	-43	-0.37	0.0
Cc1noc(C)c1NC(=O)N(C)C[C@@H]1Oc2ccc(NS(=O)(=O)c3ccc(F)cc3)cc2C(=O)N([C@H](C)CO)C[C@@H]1C	10	29	-0.26	1.1
C[C@H]1CN([C@@H](C)CO)C(=O)Cc2cc(NC(=O)CCCCCC(=O)Nc3ccccc3N)ccc2O[C@@H]1CN(C)C(=O)Nc1cccc2ccccc12	-14	.	-0.044	-1.7
C[C@@H]1CN([C@H](C)CO)C(=O)c2cccc(NC(=O)C3CC3)c2O[C@H]1CN(C)S(=O)(=O)c1cn(C)cn1	-11	0	-0.8	2.6
COc1ccc(NC(=O)c2ccco2)cc1NC(=O)C(C)Oc1ccc(Cl)cc1Cl (stereo unspecified)	?	.	.	1.3
CCOC(=O)Cn1c(C)c(Sc2ccccc2)c2ccccc21	7	.	-1.1	-2.1
C[C@H]1CN([C@@H](C)CO)C(=O)Cc2cc(NC(=O)Cn3cnnn3)ccc2O[C@@H]1CN(C)CC1CC1	0	.	0.09	0.4
C[C@H](CO)N1C[C@H](C)[C@@H](CN(C)CC2CCCCC2)Oc2ccc(NC(=O)NC3CCCCC3)cc2C1=O	-5	.	0.17	1.9
Cc1ccc(S(=O)(=O)N(C)C[C@@H]2Oc3c(NC(=O)Nc4c(C)noc4C)cccc3C(=O)N([C@H](C)CO)C[C@H]2C)cc1	0	-16	-0.049	2.7
CC(C)NC(=O)N(C)C[C@@H]1Oc2ccc(NC(=O)C3CCCCC3)cc2CC(=O)N([C@H](C)CO)C[C@H]1C	0	-63	-0.1	-0.9
C[C@H]1CN([C@@H](C)CO)C(=O)Cc2cc(NC(=O)NC3CCCCC3)ccc2O[C@@H]1CN(C)Cc1ccc(Cl)c(Cl)c1	3	?	-17	-0.2
O=C1CC(c2ccccc2)=NN1	7	-16	-0.34	0.0
C[C@@H]1CN([C@@H](C)CO)C(=O)c2cc(NC(=O)Cn3cnnn3)ccc2O[C@H]1CN(C)Cc1ccc(Cl)c(Cl)c1	5	.	-0.27	1.3

Next section (two carried over from the part before).
SMILES	MITF inh	Hedgehog inh	YB-1 expr inh	PD-1 reversal
O=C1CC(c2ccccc2)=NN1	7	-16	-0.34	0.0
C[C@@H]1CN([C@@H](C)CO)C(=O)c2cc(NC(=O)Cn3cnnn3)ccc2O[C@H]1CN(C)Cc1ccc(Cl)c(Cl)c1	5	.	-0.27	1.3
C[C@@H]1CN([C@@H](C)CO)C(=O)Cc2cc(NS(C)(=O)=O)ccc2O[C@@H]1CN(C)C(=O)Nc1cccc2ccccc12	0	-16	0.18	1.3
COc1ccc(S(=O)(=O)Nc2cccc3c2O[C@H](CN(C)Cc2ccc(C(=O)O)cc2)[C@@H](C)CN([C@H](C)CO)C3=O)cc1	5	7	0.13	1.8
C[C@@H]1CCCCO[C@H](CN(C)Cc2ccccc2)[C@@H](C)CN([C@H](C)CO)C(=O)c2cc(NS(=O)(=O)c3cn(C)cn3)ccc2O1	-6	-33	-0.86	.
CC(C)NC(=O)N(C)C[C@H]1Oc2ccc(NS(=O)(=O)c3ccc(F)cc3)cc2CC(=O)N([C@H](C)CO)C[C@H]1C	-2	4	-0.13	1.5
COc1ccc(CN(C)C[C@H]2Oc3ccc(NC(=O)Nc4c(C)noc4C)cc3CC(=O)N([C@H](C)CO)C[C@H]2C)cc1	-10	.	-0.5	-0.3
Cc1noc(C)c1NC(=O)N(C)C[C@@H]1Oc2ccc(NS(=O)(=O)c3ccc(Cl)cc3)cc2C(=O)N([C@H](C)CO)C[C@@H]1C	0	-5	-0.18	0.6
C[C@@H]1CN([C@H](C)CO)C(=O)c2cc(NS(C)(=O)=O)ccc2O[C@@H]1CN(C)Cc1ccccc1	1	-5	0.36	.
O=C(CSc1nc(N2CCCCC2)nc(N2CCCCC2)n1)Nc1ccc(F)cc1	20	.	.	-2.1
COc1ccc(-c2cc(C)nc(SCC(=O)Nc3cccc(Cl)c3Cl)n2)cc1	7	.	.	1.0
CSc1cccc(NC(=O)CSc2nnc(-c3ccco3)n2C)c1	-6	.	.	1.2
C[C@@H]1CN([C@H](C)CO)C(=O)Cc2cc(NC(=O)c3ccncc3)ccc2O[C@@H]1CN(C)C(=O)Nc1cccc2ccccc12	8	-12	-0.043	-1.3
C[C@H](CO)N1C[C@H](C)[C@@H](CN(C)C(=O)NC2CCCCC2)Oc2ccc(NC(=O)Nc3cccc4ccccc34)cc2C1=O	24	-31	0.14	-0.8
CC(=O)OCC(=O)[C@@]12OC3(CCCC3)O[C@@H]1CC1C3CCC4=CC(=O)C=C[C@]4(C)[C@@]3(F)[C@@H](O)C[C@@]12C (stereo partly specified)	-39	30	-0.058	.
C[C@@H]1CN([C@@H](C)CO)C(=O)c2cccc(N(C)C)c2O[C@@H]1CN(C)C(=O)NC1CCCCC1	1	-6	0.83	-1.3
Cc1ccc(C(=O)CC2(O)C(=O)N(CCCC#N)c3ccccc32)o1 (stereo unspecified)	7	.	.	1.8
COc1cc2c(cc1OC)C1(Cc3ccc4c(c3C1O)OCO4)N(C)CC2 (stereo unspecified)	.	-4	0.16	.
Cc1ccc(S(=O)(=O)N(C)C[C@@H]2Oc3c(NC(=O)c4cnccn4)cccc3C(=O)N([C@@H](C)CO)C[C@H]2C)cc1	-15	-21	-0.22	-0.7
C[C@@H]1CN([C@@H](C)CO)C(=O)c2cccc(NC(=O)NC3CCCCC3)c2O[C@@H]1CN(C)C(=O)Nc1cccc2ccccc12	0	-7	-0.59	0.5
Cc1ccc(S(=O)(=O)N(C)C[C@@H]2Oc3ccc(NC(=O)NC4CCCCC4)cc3CC(=O)N([C@H](C)CO)C[C@H]2C)cc1	15	9	-0.23	-0.6
C[C@@H]1CN([C@@H](C)CO)C(=O)Cc2cc(NS(=O)(=O)c3cn(C)cn3)ccc2O[C@@H]1CN(C)Cc1ccccc1	-9	-27	0.33	2.4

Arranged by molecular weight (ascending): part of the list above.
SMILES	MITF inh	Hedgehog inh	YB-1 expr inh	PD-1 reversal
COc1cc2c(cc1OC)C1(Cc3ccc4c(c3C1O)OCO4)N(C)CC2 (stereo unspecified)	.	-4	0.16	.
COc1ccc(-c2cc(C)nc(SCC(=O)Nc3cccc(Cl)c3Cl)n2)cc1	7	.	.	1.0
C[C@@H]1CN([C@@H](C)CO)C(=O)c2cccc(N(C)C)c2O[C@@H]1CN(C)C(=O)NC1CCCCC1	1	-6	0.83	-1.3
Cc1ccc(S(=O)(=O)N(C)C[C@@H]2Oc3c(NC(=O)c4cnccn4)cccc3C(=O)N([C@@H](C)CO)C[C@H]2C)cc1	-15	-21	-0.22	-0.7
Cc1ccc(S(=O)(=O)N(C)C[C@@H]2Oc3ccc(NC(=O)NC4CCCCC4)cc3CC(=O)N([C@H](C)CO)C[C@H]2C)cc1	15	9	-0.23	-0.6
C[C@H](CO)N1C[C@H](C)[C@@H](CN(C)C(=O)NC2CCCCC2)Oc2ccc(NC(=O)Nc3cccc4ccccc34)cc2C1=O	24	-31	0.14	-0.8

Following part.
SMILES	MITF inh	Hedgehog inh	YB-1 expr inh	PD-1 reversal
COc1ccc(S(=O)(=O)Nc2ccc3c(c2)CC(=O)N([C@@H](C)CO)C[C@@H](C)[C@@H](CN(C)S(=O)(=O)c2ccc(Cl)cc2)O3)cc1	9	20	-0.33	0.3
CC(C)NC(=O)N(C)C[C@H]1Oc2ccc(NC(=O)Nc3ccccc3)cc2C(=O)N([C@@H](C)CO)C[C@@H]1C	4	13	-0.44	1.5
O=C(CSc1n[nH]c(-c2ccco2)n1)Nc1ccc(F)cc1	-6	.	.	0.5
C[C@@H]1CN([C@@H](C)CO)C(=O)c2cc(NC(=O)Cc3cn(C)c4ccccc34)ccc2O[C@@H]1CN(C)C(=O)Nc1ccc(C(F)(F)F)cc1	39	5	0.13	.
COc1cccc(-c2cc(=O)c3cc(OC)ccc3o2)c1	93*	-142	0.19	.
Cc1noc(C)c1NC(=O)Nc1cccc2c1O[C@@H](CN(C)S(=O)(=O)c1cccs1)[C@@H](C)CN([C@@H](C)CO)C2=O	-7	-5	0.11	-0.1
C[C@H](CO)N1C[C@H](C)[C@H](CN(C)S(=O)(=O)c2cn(C)cn2)Oc2ccc(NC(=O)Cc3ccccc3)cc2C1=O	-6	.	-0.11	-0.2
CNC[C@@H]1Oc2c(NC(=O)Nc3ccc4c(c3)OCO4)cccc2C(=O)N([C@H](C)CO)C[C@H]1C	-11	13	0.49	.
O=C(CC1(O)C(=O)Nc2ccccc21)c1ccc(NC(=O)C2CC2)cc1 (stereo unspecified)	-64	.	.	1.7
COc1ccc(CN(C)C[C@H]2Oc3ccc(NC(=O)C4CC4)cc3C(=O)N([C@H](C)CO)C[C@H]2C)cc1	1	-16	0.3	-0.1
Cc1cc(=O)n(-c2ccccc2)n1C	-19	9	0.096	.
Cc1ccc(C(=O)Nc2cc3ccccc3oc2=O)cc1	72	19	0.41	0.2
COc1ccc(S(=O)(=O)Nc2cccc3c2O[C@H](CN(C)S(=O)(=O)c2ccc(C)cc2)[C@H](C)CN([C@@H](C)CO)C3=O)cc1	-8	-2	0.55	0.2

Not all compounds are listed, so the mix of outcomes need not match the whole.
